FGF22 binding = FGF22 (human) thermal shift binding; recombinant FGF22 thermal shift, SYPRO orange fluorescence; percent of sucrose octasulfate shift, DMSO zero; calls only at 9.99 µM; 340,000 compounds, 1.5% hits;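 active = melting point raised past a set limit in the mean and every replicate; inconclusive = no clear call; three in four hits are not shown here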
Target sequence (Q9HCT0 whole entry, looked up): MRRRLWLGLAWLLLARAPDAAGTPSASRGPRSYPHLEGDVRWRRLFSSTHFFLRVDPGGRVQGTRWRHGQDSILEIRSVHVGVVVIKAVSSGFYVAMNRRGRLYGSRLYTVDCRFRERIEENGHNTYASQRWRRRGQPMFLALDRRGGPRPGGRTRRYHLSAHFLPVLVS
Vif A3G = HIV-1 Vif–A3G interaction blockers – biochemical, TR-FRET, GST-Vif 1-94, biotin-A3G peptide, dose response retest, primary screen (AID 1117319); TR-FRET GST-Vif / biotin-A3G peptide binding; higher % means a stronger effect; test concentration not given here; strong numbers were not always called active; inhibition, %, or IC50 in µM where a hit was titrated; 260,000 compounds, 0.57% hits;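 active = above the screen mean plus three standard deviations and confirmed in dose response; inconclusive = results disagree or hit not tested in dose response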;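 also: Vif residues 1-94 fused to GST binding biotinylated APOBEC3G peptide 110-148; 0% = full assay without inhibitor and 100% = GST in place of GST-Vif; retest series ran down from 100 µM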
UCH37 inh = human UCH37 deubiquitinating enzyme inhibition | Q9Y5K5 | purified proteasome/UCH37, Ub-AMC cleavage fluorescence | inhibition, % (concentration not given with the values) | 330,000 compounds, 0.33% hits | AID 588478;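 active = mean of two replicates above 20%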;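 also: 0% = compound-free wells with enzyme and 100% = wells lacking proteasome; stock transfer was 100 nL into about 20 µL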
Target sequence (Q9Y5K5 whole entry, looked up): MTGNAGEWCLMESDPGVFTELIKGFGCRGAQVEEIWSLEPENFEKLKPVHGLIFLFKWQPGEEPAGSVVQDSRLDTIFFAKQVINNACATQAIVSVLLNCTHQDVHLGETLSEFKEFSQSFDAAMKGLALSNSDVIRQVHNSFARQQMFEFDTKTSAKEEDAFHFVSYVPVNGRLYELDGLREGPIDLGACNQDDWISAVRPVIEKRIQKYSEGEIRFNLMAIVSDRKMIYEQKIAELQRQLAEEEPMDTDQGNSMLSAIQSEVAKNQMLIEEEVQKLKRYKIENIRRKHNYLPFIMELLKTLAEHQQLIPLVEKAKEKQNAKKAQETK
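Material: Human UCH37 enzyme supplied as purified proteasome complex | Schedule: 30 min compound-proteasome preincubation then 25 min substrate reaction, room temperature | Detection: AMC fluorescence from Ub-AMC cleavage, excitation 355 nm, emission 460 nm | Benchmarks: Wells without proteasome as full block, compound-free enzyme plus substrate as uninhibited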
HNF4A DNA FP = change in binding of human HNF4 alpha to DNA | AID 1224865 | HNF4a-FITC DNA binding, fluorescence polarization, 1 h | 360,000 compounds, 0.3% hits | P41235 | activity change, % at 10 µM; in the data active = activity change above about 30%, passing the limit was not always enough;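 also: controls were the assay level and a saturating level of protein; the project sought stronger binding though the title names inhibitors; some compounds called inactive have numbers as strong as hits; positive values seem to mean higher polarization but the record does not say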
Target sequence (P41235 whole entry, looked up): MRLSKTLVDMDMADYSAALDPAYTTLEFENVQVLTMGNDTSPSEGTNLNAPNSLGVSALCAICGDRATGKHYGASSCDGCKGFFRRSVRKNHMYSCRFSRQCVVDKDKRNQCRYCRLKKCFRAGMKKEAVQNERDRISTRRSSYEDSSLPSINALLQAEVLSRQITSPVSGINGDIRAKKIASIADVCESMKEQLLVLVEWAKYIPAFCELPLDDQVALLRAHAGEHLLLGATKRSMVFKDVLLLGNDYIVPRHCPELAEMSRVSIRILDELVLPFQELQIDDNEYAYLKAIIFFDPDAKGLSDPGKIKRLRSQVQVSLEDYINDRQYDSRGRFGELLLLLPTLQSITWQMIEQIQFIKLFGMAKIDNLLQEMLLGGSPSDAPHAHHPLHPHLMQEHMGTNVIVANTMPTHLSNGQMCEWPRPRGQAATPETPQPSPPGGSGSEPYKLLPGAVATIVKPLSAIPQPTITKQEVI
E coli growth = inhibitors of Escherichia coli growth; OD600, 23 h; hits give low values; OD600 absorbance (test concentration not listed); 330,000 compounds, 0.21% hits; AID 1053175;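 active = OD600 absorbance below the run mean of sample wells minus 3.6 SD, in any replicate, cut at about 0.56 in these data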;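 also: stock transfer was 300 nL into about 60 µL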
MLL AF4-AF9 inh = MLL-AF4/AF9 protein interaction inhibition; AID 651704; 350,000 compounds, 0.47% hits; inhibition, % at 10 µM; P42568; AlphaScreen, biotin-AF4 peptide binding to FLAG-AF9;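 active = every replicate reaching a set inhibition limit, whatever the replicate mean, cut at about 25% in these data; inconclusive = mean inhibition reaches that limit but some replicates miss it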;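 also: 0% = plate neutral control median and 100% = total signal loss; the record names both 10 and 1 µM as test concentration; the first replicate is given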
RanGTP-Imp inh = disruptors of Ran-importin-beta complex formation – biochemical, FRET, CFP-Ran, YFP-importin-beta, homogeneous, primary screen; 300,000 compounds, 1.1% hits; cell-free CFP-Ran/YFP-importin-beta FRET ratio; inhibition, % (no concentration beside the values);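 active = most replicates above 15%; inconclusive = exactly half above 15%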;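 also: 0% = DMSO wells and 100% = Ran loaded with GDP instead of GTP; wells of about 40 µL received 100 nL stock; the first replicate is given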
* = called active by the depositor; i = inactive; ? = inconclusive; . = not tested or not shown; & = joins results of further samples.

SMILES	FGF22 binding	Vif A3G	UCH37 inh	HNF4A DNA FP	E coli growth	MLL AF4-AF9 inh	RanGTP-Imp inh
COc1cc2[nH]c3c(=O)n(CCN4CCCCC4)cnc3c2cc1OC	.	28%	-33	1.7	0.7	.	-2.0
Cc1ccc(CNC(=O)[C@H](C)N2C(=O)N3CCc4c([nH]c5ccccc45)[C@@]3(C)C2=O)cc1	i	.	1.8	10	0.71	0.0	-1.6
Cc1ccc2c(c1)N(CC(=O)N1CCC(O)CC1)C(=O)CO2	i	.	-1.1	-0.9	0.65	-0.2	4.0
CC(=O)c1sc(N2CCOCC2)nc1-c1ccccc1	.	-43%	8.3	-1.0	0.69	-8.2	4.8
COC1=NC(=C(c2ccccc2)c2ccccc2)OC1=O	i	-6%	-19	0.3	0.7	-3.7	.
CCN1C(=O)C(=O)N(CC(=O)c2[nH]c(C)c(C(C)=O)c2C)C1=O	.	-5%	4.2	0.8	0.64	-0.4	-4.6
FC(F)(F)c1cc(Oc2ccccc2)nc(-c2ccccn2)n1	.	4%	-1.0	-2.6	0.7	.	7.7
CCOc1ccc(NC(=O)Nc2ccon2)cc1	i	.	-3.0	0.6	0.66	-4.2	7.7
CCN(c1cccc(C)c1)S(=O)(=O)c1ccc2c(c1)NC(=O)CCS2	i	.	1.5	-3.5	0.67	-2.1	0.8
COc1cccc(OC)c1C(=O)Nn1c(C2CCC2)nc2ccccc2c1=O	.	-5%	0.8	-2.3	0.72	.	1.1
CCn1nc(NC(=O)C(C)(C)C)c2cc3cccc(C)c3nc21	i	-2%	-102	-2.6	0.67	-38	47*
O=C(O)CCCCCNC(=O)/C(=C\c1ccco1)NC(=O)c1ccco1	i	.	-0.3	-0.9	0.7	-0.5	?
CCOC(=O)c1ccc(-c2n[nH]c(=O)c3ccccc23)cc1	.	-2%	2.2	0.6	0.72	.	-2.7
CCCCn1c(N)c(N(CC)C(=O)CSc2nnnn2-c2cc(C)ccc2C)c(=O)[nH]c1=O	i	.	4.4	2.4	0.66	-6.0	0.4
Cc1ccc(NC(=S)NCCSc2ccc(Cl)cc2)cc1	i	.	-2.1	1.1	0.7	-0.6	0.4
COc1ccc(C2CC(c3ccc(C)cc3)=NN2C(=O)c2ccccc2)cc1 (centres undefined)	i	0%	0.9	3.9	0.69	-4.4	-1.8
COc1cccc(C(=O)Nc2ccc(S(=O)(=O)NCc3ccco3)cc2)c1	.	10%	2.2	-4.1	0.71	.	-1.8
CSc1ccc(C2Nc3ccccc3-c3cc(C)nn32)cc1 (centres undefined)	.	74%	-10	2.4	0.7	.	1.1
CC(C)[C@H](NC(=O)c1ccccc1Cl)C(=O)OCC(=O)Nc1ccc(S(=O)(=O)N2CCOCC2)cc1	.	0%	3.9	2.6	0.69	-9.6	.
Cc1nc2cc3nc(C)sc3cc2s1	.	22%	3.0	-0.6	0.73	.	0.4
O=[N+]([O-])c1ccc(Cl)cc1Sc1ccccn1	.	3%	2.5	-0.2	0.67	.	-2.0
CC(C)(C)NC(=O)C(c1ccco1)N(Cc1ccc(F)cc1)C(=O)c1snc(C(N)=O)c1N (centres undefined)	.	-2%&-4%	-33	0.7	0.71	.	28*
Cc1cccc(NC(=O)NCc2ccccn2)c1	.	.	1.8	1.3	0.72	.	-2.3
N/C(COc1cccc(Cl)c1)=N\O	i	8%	.	-0.1	.	0.0	4.1
Cc1ccc(S(=O)(=O)N2CCC(=O)N(CCOC(=O)NCc3ccccc3)CC2)cc1	i	?	1.3	.	0.66	1.5	.
SMILES	FGF22 binding	Vif A3G	UCH37 inh	HNF4A DNA FP	E coli growth	MLL AF4-AF9 inh	RanGTP-Imp inh
CC(C)C[C@@]12C(=O)N(c3cccc(Br)c3)C(=O)N1[C@H](c1ccc(F)cc1)[C@@H]1C(=O)N(C3CCCCC3)C(=O)[C@@H]12	i	.	4.7	-0.4	.	1.4	-2.5
Cc1ccccc1N1C(=O)C(Oc2ccc(Cl)cc2)C1CNCCCOC(C)C (centres undefined)	i	-5%	-21	-2.7	0.65	7.2	0.9
Cc1cccc(C)c1NC(=O)COC(=O)c1ccccc1[N+](=O)[O-]	.	0%	1.0	-0.8	0.71	-0.3	-0.1
CC(=O)Nc1ccc(S(=O)(=O)NC2(C(F)(F)F)C(=O)Nc3c2c(=O)[nH]c(=O)n3Cc2ccccc2)cc1 (centres undefined)	i	6%	1.4	-0.1	0.68	0.3	?
Nc1ccc(C(=O)OCC(=O)NC2CC2)cc1[N+](=O)[O-]	i	15%	6.5	-4.8	0.67	0.2	-5.2
CCCSc1nc2cc(C)c(C)cc2n1CC(C)O (centres undefined)	i	8%	3.9	3.1	0.69	0.3	?
Cc1cc(C)cc(N(CC(=O)NCc2ccc3c(c2)OCO3)C(=O)CCC(=O)Nc2ccccn2)c1	.	5%&-1%	1.7	1.8	0.79	.	0.0
CCOc1ccccc1-n1c(SCC(N)=O)nnc1-c1ccc(O)cc1	.	-2%	-0.4	-1.1	0.74	.	3.2
CCOC(=O)C(C)On1c(-n2nc(C)cc2C)nc2ccccc2c1=O (centres undefined)	i	-3%	5.3	2.1	0.63	-5.9	9.9
O=C(NCc1n[nH]c(=O)c2ccccc12)C1CC(=O)N(c2ccc(Cl)cc2)C1 (centres undefined)	i	-1%	1.8	0.4	0.67	12	8.2
COc1ccc2cc(CCC(C)=O)ccc2c1	i	-7%	2.8	-0.1	.	-7.3	1.9
COc1cc(Cl)nn(-c2ccccc2)c1=O	.	12%	1.4	-0.1	0.66	.	-3.2
O=C(N/N=C1\CC2CC=CC12)c1ccc(Br)cc1 (centres undefined)	i	-2%	.	-4.6	.	0.4	3.4
CCC(Oc1ccccc1)C(=O)NCc1cccnc1 (centres undefined)	.	2%	0.5	-2.7	0.71	.	1.9
CCc1ccccc1NC(=O)CNC(=O)CNC(=O)c1cccs1	i	-9%	-1.6	-1.1	0.69	-0.9	.
COCCN(CC1CCCN(C2Cc3ccccc3C2)C1)C(=O)CCC(C)=O (centres undefined)	i	.	-1.7	4.3	0.64	1.4	-4.5
CCOC(=O)N1CCC(Nc2c(Nc3ccc(F)cc3)c(=O)c2=O)CC1	.	16%	3.2	0.6	0.69	.	1.6
Cc1cc(C(=O)N/N=C2\CCCC(=O)C2)c(C)n1-c1ccccc1	.	28%	.	3.0	.	.	0.2
CCNC(=O)COC(=O)CCC(=O)c1cccs1	i	-3%	-1.3	-1.9	0.71	0.6	-3.2
Clc1c(Cl)c(Cl)c2n[nH]nc2c1Cl	i	-3%	0.7	-0.2	0.57	.	?
COc1ccc(CCNC(=O)C2CCCN(S(=O)(=O)c3ccc(F)cc3)C2)cc1OC (centres undefined)	i	.	2.5	4.1	0.67	-0.7	4.1
CCOc1ccccc1C(=O)NCC(=O)NCCCc1ccccc1	i	-11%	0.8	0.6	0.66	-2.6	-4.3
O=C(C[C@@H]1C/C=C\CCCC(=O)OC[C@@H]2CCCN2C1=O)N[C@@H](CO)Cc1ccccc1	i	.	-5.7	0.6	.	-0.8	.
CCSC1=N/C(=C\c2ccccc2)C(=O)N1	i	2%	0.0	0.9	.	-19	5.0
CCCCc1nc2cc(C(=O)NCc3cn(C)nc3C)ccc2o1	i	-1%	-0.6	-2.3	0.66	-2.6	-1.3

2 compounds drawn at random from the list so far, as already listed:
SMILES	FGF22 binding	Vif A3G	UCH37 inh	HNF4A DNA FP	E coli growth	MLL AF4-AF9 inh	RanGTP-Imp inh
Cc1ccc(CNC(=O)[C@H](C)N2C(=O)N3CCc4c([nH]c5ccccc45)[C@@]3(C)C2=O)cc1	i	.	1.8	10	0.71	0.0	-1.6
Clc1c(Cl)c(Cl)c2n[nH]nc2c1Cl	i	-3%	0.7	-0.2	0.57	.	?

Next section
SMILES	FGF22 binding	Vif A3G	UCH37 inh	HNF4A DNA FP	E coli growth	MLL AF4-AF9 inh	RanGTP-Imp inh
CCCNS(=O)(=O)c1cc(Cl)ccc1OC	i	-2%	1.0	-2.7	0.66	-0.3	7.2
CC(NC(=O)c1ccccc1SCC(=O)N1CCCC1)c1ccc(F)cc1 (centres undefined)	i	.	2.0	3.0	0.73	-0.8	-6.1
CC(C)C1C(=O)N(Cc2cn(Cc3ccco3)nn2)CCS(=O)(=O)N1Cc1ccc(-c2ccccc2)cc1 (centres undefined)	i	-3%	.	7.9	.	1.6	.
COc1ccc(OC)c(NC(=O)c2ccc(S(=O)(=O)N3CCOCC3)cc2)c1	i	.	1.6	0.5	0.64	-2.0	1.8
N=C1C=CC(=C(c2ccc(N)cc2)c2ccc(N)cc2)C=C1	i	3.4µM*	.	26	.	45*	.
COc1ccc(C(C)=O)cc1CSc1nnnn1-c1ccc(O)cc1	i	-1%	2.6	-1.5	0.67	-3.6	3.5
CCOC(=O)C1CCN(C(=O)CSCc2nc(-c3ccc(OCC)cc3)oc2C)CC1	.	-4%	2.7	0.9	0.75	.	-1.5
COc1ccc(C(=O)CSc2nc(C(C)(C)C)nc3ccccc23)cc1	i	9%	2.0	1.6	0.64	-9.9	?
COc1ccc(NC(=O)C2(C)Cc3c(-c4cccc(C(F)(F)F)c4)ccnc3O2)cc1OC (centres undefined)	i	.	.	1.3	.	2.4	.
O=C(NCc1cccnc1)c1sc2ccccc2c1Cl	.	-6%	-1.7	4.6	0.69	.	1.2
COc1cccc(OC)c1C(=O)Nc1cccnc1	i	-6%	1.5	0.5	0.69	-0.8	-2.1
COc1ccccc1NC(=O)Cn1c(C)nc2c(sc(=S)n2Cc2ccco2)c1=O	i	.	13	2.8	0.72	-1.2	4.8
Cc1nc(C)c(CCNC(=O)c2ccc(C(F)(F)F)cc2)s1	.	.	1.8	3.1	0.61	.	3.4
CC(=O)Nc1ccc(S(=O)(=O)NCCC(=O)N2CCN(c3ccccc3Cl)CC2)cc1	i	.	0.3	-1.1	0.63	-1.2	.
Cc1ccccc1OCC(=O)NC(=S)Nc1ccc(S(=O)(=O)NC2CCCCC2)cc1	.	-1%	3.2	0.3	0.77	.	0.9
CCn1nc(C(=O)OCc2cccc(S(=O)(=O)N(C)C)c2)c2ccccc2c1=O	i	.	.	-0.3	.	7.0	5.4
Cc1cccc(C(=O)Nc2cc(C)ccc2NC(=O)COc2ccccc2)c1	.	5%	1.2	0.0	0.79	.	-1.5
Fc1ccc(C(Nc2ccccn2)c2c[nH]c3ccccc23)cc1 (centres undefined)	i	-8%	3.2	0.7	0.71	-2.3	-0.2
CCN(CC)S(=O)(=O)c1cccc2nsnc12	.	-3%	6.5	2.6	0.72	.	3.1
Cc1cc(O)c2/c(=N\N)c(-c3csc(C)n3)coc2c1	i	17%	.	-1.9	.	-3.9	1.0
CCOC(=O)CCc1ccc(NC(=O)/C=C/c2ccc([N+](=O)[O-])o2)cc1	i	6%	.	17	.	-1.7	.
COc1ccc2cc(CN(CC3CCCO3)S(=O)(=O)c3ccc(C(C)=O)cc3)c(=O)[nH]c2c1 (centres undefined)	.	13%	5.1	-1.3	0.66	.	9.9
COc1ccc(/C=N/NC(=O)c2cc(O)c(O)c(O)c2)cc1Cn1cc([N+](=O)[O-])cn1	i	1.1µM*	.	-29	.	5.3	8.5
CCCNC(=O)c1cc(-c2ccc(OC)cc2)n(CCCOC)c1C	i	-2%	-1.1	-3.1	0.66	2.8	-2.9
COc1ccc(/C=C/C(=O)Oc2ccc(/C=N/NC(=O)c3ccncc3)cc2)cc1	i	.	.	0.5	.	-2.3	-4.6

Shown as a hit in MLL AF4-AF9 inh, among the entries above:
SMILES	FGF22 binding	Vif A3G	UCH37 inh	HNF4A DNA FP	E coli growth	MLL AF4-AF9 inh	RanGTP-Imp inh
N=C1C=CC(=C(c2ccc(N)cc2)c2ccc(N)cc2)C=C1	i	3.4µM*	.	26	.	45*	.

Screens (PubChem BioAssay)

This is a subset (hit frequency here may not be typical).
